# Assay outcomes (PubChem)
# Mtb betalactam: beta-lactam sensitization of Mtb H37Rv. M. tuberculosis H37Rv growth with meropenem, percent inhibition; hits of this screen are not shown here. inhibition, % at 25 µM. 330,000 tested, 0.27% active;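 active means about 74% or more and at least 40 points above the plate without the antibiotic, then above 30% in a dose series; inconclusive means first-round hits that could not be retested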;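 further: growth measured after seven days incubation then overnight dye step; 0% = bacteria only wells and 100% = bacteria with antibiotic; twin plates without the antibiotic show which effects depend on it; some results filed as inactive read as strong as hits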
# Numbers without * were called inactive; ? = inconclusive. An excerpt, so the mix of outcomes need not match the whole.
SMILES	Mtb betalactam
C[C@H](CO)N1C[C@H](C)[C@@H](CN(C)CC2CCCCC2)Oc2c(NC(=O)C3CC3)cccc2C1=O	6.8
CN(C)C1=NC[C@H](Cc2ccccc2)N1CC1CCCC1	-4.1
CC(=O)Nc1ccc(S(=O)(=O)Nc2nc(C)nc3sc(C)c(C)c23)cc1	-0.4
COc1ccc(NC(=O)c2cccc3c2C(=O)c2ccc(-c4ccc(F)cc4OCc4ccccc4)cc2S3(=O)=O)cc1	-1.2
C[C@]12CC[C@@H](O)CC1=CC(=O)C1C2CC[C@]2(C)C(=O)CCC12 (stereo not given in full)	0.3
CCN(CC)S(=O)(=O)c1ccc(N2CCOCC2)c(NC(=O)COc2ccc(OC)cc2)c1	1.9
O=C1C=C(/C=C/C2C=CC=CC2)C[C@@H](c2ccc(Cl)cc2)C1 (stereo not given in full)	8.4
C=CC[C@@H](CC(=O)NCCO)C(=O)N[C@@H](C)COC(=O)[C@H](CC=C)CC(=O)OC(C)(C)C	0.1
COC(=O)[C@]1(C)N[C@H](CN(C)S(=O)(=O)c2ccc(F)cc2)[C@@H]2C(=O)N(Cc3ccccc3)C(=O)[C@@H]21	2.1
Cc1cc(C)cc(C(=O)OCC(=O)Nc2ncccn2)c1	1.3
Cc1ccc(NC(=O)C(=O)NN)cc1	85.0
O=C(Cc1ccc(S(=O)(=O)N2CCOCC2)s1)N1CCN(S(=O)(=O)c2ccc(Cl)cc2)CC1	3.2
Cc1cc(NC(=O)COC(=O)c2c(C)c(C)c(C)c(C)c2C)no1	96.5
CSc1ccccc1NC(=O)CN(C)C(C)C(=O)NCc1ccc2c(c1)OCO2 (stereo not given)	3.4
CC(C)C(NC(=O)c1ccccc1)C(=O)N1CCN(C/C=C/c2ccccc2)CC1 (stereo not given)	-0.7
Cc1ccc(S(=O)(=O)N2[C@@H](c3ccccc3)C(C(=O)O)=CC[C@H]2c2cccc(Cl)c2)cc1	-13.2
CC1CCC2(CC1)NC(=O)N(CC(=O)Nc1cc(S(=O)(=O)N3CCCC3)ccc1Cl)C2=O (stereo not given)	-1.4
COc1cc(CCCN2CCNC[C@@H]2CC2CCCCC2)cc(OC)c1OC	2.7
Cc1cccc(C(=O)OCC(=O)N2CCCCCC2)c1	-1.5
O=[N+]([O-])c1ccc(/C=N/n2cn[nH]c2=S)cc1	-0.2
Cc1ccc(SCC(=O)NCC2COc3ccccc3O2)cc1 (stereo not given)	6.6
Cn1c(=O)[nH]c(=O)c2c1nc(N1CCN(CCO)CC1)n2Cc1ccccc1	-1.1
CC(C)(O)CCC(C)(C)O	-3.2
O=C(CN1C(=O)NC2(CCCC2)C1=O)N1CCN(S(=O)(=O)c2cc(Cl)ccc2Cl)CC1	-10.5
O=C1CC(c2ccccc2)CC(=O)N1c1ccc(C(F)(F)F)cc1	6.4
O=C(COC(=O)Cc1n[nH]c(=O)c2ccccc12)Nc1ccc(Cl)cn1	-3.5
CC(C)CCNC(=O)NC(=O)CSc1ccc(S(=O)(=O)N2CCOCC2)cn1	-7.8
Cc1ccc(S(=O)(=O)Nc2ncnc3sccc23)cc1C	-12.4
COc1ccc2c(c1)OC[C@H]1[C@H]2N2C(=O)CN(CCc3c[nH]c4ccccc34)C(=O)[C@@]2(C)[C@H]1c1ccccc1	92.3
O=C(COC(=O)CN1C(=O)C2CCCCC2C1=O)Nc1ccc(F)c(F)c1F (stereo not given)	-4.7

# 4 entries from above, field by field.
Cc1ccc(NC(=O)C(=O)NN)cc1
  Mtb betalactam: 85.0
O=C(Cc1ccc(S(=O)(=O)N2CCOCC2)s1)N1CCN(S(=O)(=O)c2ccc(Cl)cc2)CC1
  Mtb betalactam: 3.2
Cc1cc(NC(=O)COC(=O)c2c(C)c(C)c(C)c(C)c2C)no1
  Mtb betalactam: 96.5
CSc1ccccc1NC(=O)CN(C)C(C)C(=O)NCc1ccc2c(c1)OCO2 (stereo not given)
  Mtb betalactam: 3.4

# (next part)
SMILES	Mtb betalactam
Cc1ccc(NC(=O)CN2C(=O)NC(Cc3ccccc3)C2=O)cc1Cl (stereo not given)	-3.2
c1ccc(C2(CN3CCNC[C@@H]3CC3CCCCC3)CC2)cc1	1.5
COc1ccc(-c2nnc(SCC(=O)N3CCCC3=O)n2N)cc1OC	-7.5
CN(C(=O)c1ccc(NC(=O)Cc2cccc(NC(=O)C3CCN(C(=O)C4CCCC4)CC3)c2)cc1)C1CCCC1	4.7
COc1ccc(NC(=O)C2CCN(S(C)(=O)=O)CC2)c(OC)c1	-2.4
CCCc1cc(=O)[nH]c(SCC(=O)Nc2cc(S(=O)(=O)N3CCCCC3)ccc2C)n1	-9.4
NS(=O)(=O)c1ccc(NC(=O)CNC(=O)c2ccc3c(c2)OCO3)cc1	-3.1
CN(CC(=O)Nc1ccc(Cl)c(Cl)c1)C(=O)C1CCC1	-3.7
CNC(=O)c1ccc(NC(=O)CC2SC(N3CCCC3)=NC2=O)cc1 (stereo not given)	-0.4
O=C1CCc2cc(S(=O)(=O)NCc3ccccc3Cl)ccc2N1	-1.5
COc1ccccc1N(CCOc1ccccc1)S(=O)(=O)c1ccccc1	-7.7
CCOC(=O)C(N)CSC1CC(=O)N(c2ccc(OCC)cc2)C1=O (stereo not given)	-10.7
CSCCC1NC(=O)N(CC(=O)N2CCc3ccccc3C2)C1=O (stereo not given)	-3.1
O=C(COc1ccc(Br)cc1)NCC1COc2ccccc2O1 (stereo not given)	-1.3
CC(=O)c1cccc(NC(=O)N2C[C@H]3C[C@@H](C2)c2cccc(=O)n2C3)c1	5.9
COc1ccccc1CC(=O)Nc1ccc(S(=O)(=O)N2CC(C)CC(C)C2)cc1 (stereo not given)	-8.7
Cc1ccccc1Nc1nnc(SCC(=O)NCC2CCCO2)s1 (stereo not given)	-11.9
Cc1ccc2oc3c(SCc4nc5ccccc5[nH]4)nc(C)nc3c2c1	-0.1
COc1ccccc1S(=O)(=O)Nc1ccc2nc(C)sc2c1	-4.1
Cc1cc(C)n(CCNC(=O)c2ccc3c(c2)OCO3)n1	-23.2
CSc1ncccc1C(=O)OCC(=O)NC1CCCCC1	5.0
COCCCNC(=O)CC1C[C@H](C(=O)N2CCCCC2)[C@@]2(CCc3ccccc3)c3[nH]c4ccccc4c3CCN2C1=O (stereo not given in full)	-5.1
COc1cc(NC(=O)Cc2cccc3ccccc23)c(C(=O)O)cc1OC	5.4
CCC1(c2ccc(C)cc2)NC(=O)N(CC(=O)Nc2cccc(S(=O)(=O)N3CCCC3)c2)C1=O (stereo not given)	1.1
COc1ccc(Cc2nnc(NC(=O)CS(=O)(=O)c3ccccc3)s2)cc1OC	-6.6
O=C(COC(=O)c1ccc([N+](=O)[O-])cc1)Nc1ccccc1C(=O)NC1CC1	-0.7
COc1ccc(CCNC(=O)CSCC(=O)Nc2cc(S(C)(=O)=O)ccc2Cl)cc1	4.4
CCC(Oc1ccccc1)C(=O)Nc1ccc(S(=O)(=O)Nc2ncccn2)cc1 (stereo not given)	3.0
CC1CCN(S(=O)(=O)c2ccc(NC(=O)c3ccccc3F)cc2)CC1	-10.0
Cc1cccc(OCCCC(=O)NNC(=O)c2cccc(N(C)C)c2)c1	-2.7
CCOc1ccc(N(C)S(=O)(=O)c2ccc(C)c(C(=O)N3CCN(Cc4ccc5c(c4)OCO5)CC3)c2)cc1	-6.5
CCOc1ccc(NC(=O)c2ccco2)cc1S(=O)(=O)N1CCCC1	5.4
O=C(CN1CCN(c2ccccc2)CC1)NC(=O)NCc1ccccc1	5.3
COc1cc2cc(C(C)(C)O)oc(=O)c2cc1OC	2.2
C/C=C1\NC(=O)[C@@H](NC(=O)[C@H](CCc2ccc(O)cc2)NC(=O)[C@H](C)NC(=O)[C@H](O)CO)[C@@H](C)OC(=O)[C@H](C(C)C)NC(=O)[C@H](Cc2ccc(O)cc2)N(C)C(=O)[C@H](Cc2ccccc2)N2C(=O)C(CC[C@H]2O)NC1=O (stereo not given in full)	24.5
Cc1ccc([C@H]2C(C(=O)O)=CC[C@@H](c3ccc(C)cc3)N2S(=O)(=O)c2ccc(C)cc2)cc1	0.9
Cc1ccc(NC(=O)CN(C)C(=O)C(c2ccccc2)c2ccccc2)cc1	-2.7
CCN(CC(=O)NC1CCS(=O)(=O)C1)c1ccc([N+](=O)[O-])cc1C#N (stereo not given)	-2.9
O=C(Cn1c(=O)cnc2ccccc21)NNC(=O)c1ccc(Cl)cc1	-6.0
CS(=O)(=O)c1ccc(C(=O)OCC(=O)Nc2cccnc2Cl)cc1[N+](=O)[O-]	-3.3

# Further compounds.
compound	Mtb betalactam
O=C(NCC#CCSc1nnc(-c2cccc3ccccc23)o1)c1cccs1	92.5
Cc1ccc(S(=O)(=O)CCC(=O)OCc2nnc(-c3ccccc3Br)o2)cc1	-1.2
O=C(NC1CCSc2ccccc21)c1ccc(C(F)(F)F)cc1 (stereo not given)	3.0
CCN(CC)S(=O)(=O)c1ccc(N2CCOCC2)c(NC(=O)c2[nH]c(C)c(C(C)=O)c2C)c1	0.5
CN1CCN(c2oc(-c3ccccc3)nc2S(=O)(=O)c2ccc(Br)cc2)CC1	?
COCC1CCCN(C(=O)c2cc(COc3cccc4cccnc34)on2)C1 (stereo not given)	-7.0
COc1ccc(NC(=O)CN(C)C(=O)COc2ccccc2Cc2ccccc2)cc1	2.7
CCNc1nc(C#N)nc2c1ncn2-c1cc(F)cc(F)c1	-0.8
CSCCC(NC(=O)c1ccccc1)C(=O)NCCCn1nc(C)cc1C (stereo not given)	8.3
O=C1C=C(c2cccc3c2Oc2ccccc2S3)C[C@@H](c2ccc(Cl)cc2)C1	8.6
Cc1cccc([N+](=O)[O-])c1C(=O)O	4.2
CN(CC(=O)Nc1c(Cl)cccc1Cl)CC(=O)N(C)C1(C#N)CCCCC1	-12.3
Cc1c(C2(O)CCCCC2)[nH]c2ccc(C#N)cc12	-2.7
CC(=O)c1cc2c(cc1NC(=O)CN(C)S(=O)(=O)c1cccs1)OCO2	-0.8
O=C(NCc1ccccc1Cl)c1ccc(S(=O)(=O)N2CCCC2)cc1	-0.5
Cn1nnnc1SCC(=O)Nc1ccc(Br)cc1Br	-2.8
CC(=O)Nc1ccc(S(=O)(=O)Oc2ccc(Br)cc2C(=S)N2CCOCC2)cc1	?
CCCCN(C(=O)c1cccc(-n2cnnn2)c1)c1c(N)n(CC(C)C)c(=O)[nH]c1=O	-1.5
Cc1ccc(CNC(=O)c2ccc(N3CCC4(CC3)CC(c3cccc(Br)c3)=NO4)c(NC(=O)c3ccc(Cl)c([N+](=O)[O-])c3)c2)cc1	5.8
CC1CCN(C(C)C(=O)Nc2cc(S(=O)(=O)N3CCCCC3)ccc2Cl)CC1 (stereo not given)	-2.8
C=CC[C@H](CC(=O)N[C@H](CO)Cc1ccccc1)C(=O)N[C@@H](COC(=O)[C@@H](CC=C)CC(=O)OC(C)(C)C)Cc1c[nH]c2ccccc12	-4.4
CC1CCN(C(=O)COC(=O)c2ccc([N+](=O)[O-])o2)CC1	98.6
O=C(CSc1nc2[nH]c(=O)cc(O)c2s1)Nc1ccc(Cl)c(C(F)(F)F)c1	-6.3
c1ccc(CSc2nc3ncccn3n2)cc1	8.8
COC(=O)C1=C(c2ccc(Cl)c(C(F)(F)F)c2)C[C@@H]2CC[C@H]1N2C(=O)NC1CCCCC1	5.1
O=C(CCN1C(=O)NC2(CCCC2)C1=O)Nc1cccc(S(=O)(=O)N2CCOCC2)c1	1.3
COc1cc(-c2noc(C)c2C(=O)NCCCN2CCOCC2)cc(OC)c1OC	0.9
CN(C(=O)CSc1nnc(-c2ccco2)n1Cc1ccccc1)C1CCS(=O)(=O)C1 (stereo not given)	1.0
O=C(Nc1cc(S(=O)(=O)N2CCOCC2)ccc1N1CCCCC1)c1ccc(Cl)cc1	-4.7
C#CCOCCOCCOCCNc1nc(N2CCN(C(=O)[C@H](CCCN=C(N)N)n3cc(C(N)[C@@H](C)CC)nn3)CC2)nc(N2CCN(C(=O)[C@H](CC(N)=O)n3cc([C@@H](N)CC(N)=O)nn3)CC2)n1 (stereo not given in full)	9.8

# Three entries from above, sorted by length of the SMILES, falling:
compound	Mtb betalactam
O=C(CCN1C(=O)NC2(CCCC2)C1=O)Nc1cccc(S(=O)(=O)N2CCOCC2)c1	1.3
Cc1ccc(S(=O)(=O)CCC(=O)OCc2nnc(-c3ccccc3Br)o2)cc1	-1.2
Cc1c(C2(O)CCCCC2)[nH]c2ccc(C#N)cc12	-2.7

# (list continues)
compound	Mtb betalactam
CCOc1ccccc1OCC(=O)Nc1cc2c(cc1C(=O)O)OCCCO2	-10.6
CCCC(C(=O)Nc1ccc(S(=O)(=O)N2CCOCC2)cc1)c1ccccc1 (stereo not given)	4.3
Cc1ccc2c(CN3CCN(S(=O)(=O)c4ccccc4C(F)(F)F)CC3)cc(=O)oc2c1C	-7.8
CCCCC1CCC(C(=O)N(CCOC)c2c(N)n(CC(C)C)c(=O)[nH]c2=O)CC1 (stereo not given)	1.9
c1ccc2c(CCN3CCNC[C@H]3Cc3cccc4ccccc34)cccc2c1	99.8
Cc1ccccc1OCC(=O)OCC(=O)Nc1ccc2c(c1)OCCO2	-3.5
CC(NC(=O)COC(=O)c1ccccc1F)C1CC2CCC1C2 (stereo not given)	0.7
COC(=O)c1ccc(CNC(=O)c2ccc(S(=O)(=O)N3CCCC(C)C3)cc2)cc1 (stereo not given)	-2.7
COc1ccc(Cl)cc1C(=O)NNC(=O)c1nn(C)c(=O)c2ccccc12	32.1
COc1ccc(-n2c(=S)[nH]c3cc(C(=O)N(C)Cc4ccccc4)ccc3c2=O)cc1	1.9
CCN(CC(=O)NCc1ccc(F)cc1)C(=O)CN1CCN(c2ccccc2OC)CC1	-5.9
COc1cc(C(=O)NNC(=O)c2ccc3ccccc3n2)cc(OC)c1OC	-0.3
NC(=O)C1CCN(c2nc(-c3ccc4ccccc4c3)cs2)CC1	-9.8
COc1ccccc1N1CC(C(=O)NCC2COc3ccccc3O2)CC1=O (stereo not given)	-0.1
